APE1 inh: qHTS Assay for Inhibitors of the Human Apurinic/apyrimidinic Endonuclease 1 (APE1). DNA repair nuclease/redox regulator APEX1 (Homo sapiens), P27695. recombinant APE1, TAMRA/BHQ-2 abasic DNA cleavage fluorescence. Potency, µM (top dose mostly 65.8 µM), for the others: top-dose activity change, negative = inhibition, usual class: inhibitors. actives 0.35% (n = 350,000). AID 2517, 2012;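 further: plate controls were vehicle for no effect and reference inhibitor for full effect; nearly all actives have a fitted effect of over 55% in size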
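Measures dequenching upon AP-site incision of a 5'-TAMRA/3'-BHQ-2 THF-containing duplex, 50 nM; human APE1 0.75 nM after 15 min room-temperature exposure to compound; kinetic three-point read at one-minute spacing.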
Apoferritin bind: qHTS Assay for Identification of Novel General Anesthetics | apoferritin/1-aminoanthracene competitive binding, fluorescence | Potency, µM (titrated, usually from 77.5 µM), without a hit: at the top dose activity change, negative = displacement, hits mostly inhibitors | actives 0.074% (n = 350,000); further: on the % scale 0 is the no-effect control and ±100 the full control effect; nearly all actives have a fitted effect of over 20% in size
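Horse-spleen apoferritin (10 uM) in 50% saturated 1-aminoanthracene in PBS was incubated 10 min at room temperature with compound. Fluorescence (ex 380, em 535 nm) was normalized to free and bound 1-AMA, with concentration-response fitted by a four-parameter Hill equation.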
G9a block: qHTS Assay for Inhibitors of Histone Lysine Methyltransferase G9a | Histone-lysine N-methyltransferase EHMT2 (Homo sapiens), Q96KQ7 | G9a H3K9 monomethylation, AlphaScreen, 2 h | Potency, µM (highest dose often 102 µM), for inactives: at the highest dose activity, negative = inhibition, most hits filed as inhibitors | actives 8.8% (n = 350,000) | AID 504332, 2011; further: on the % scale 0 is the no-effect control and ±100 the full control effect; nearly all actives have a fitted effect of over 75% in size
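AlphaScreen detection with an anti-monomethyl H3K9 antibody quantified product after a 2 h room-temperature reaction containing 500 nM biotinylated H3K9 peptide, 20 µM SAM and 20 nM enzyme, which had been preincubated 15 min with compound.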
BLM inh: qHTS Assay for Inhibitors of Bloom's syndrome helicase (BLM) | RecQ-like DNA helicase BLM (Homo sapiens), P54132 | recombinant BLM DNA unwinding, fluorescence dequenching | Potency, µM (doses to about 56.1 µM), without a hit: top-dose activity change, negative = inhibition, most hits filed as inhibitors | actives 0.2% (n = 350,000);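 further: plate controls were vehicle for no effect and no enzyme for full effect; nearly all actives have a fitted effect of over 35% in size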
Pol kappa inh: qHTS for Inhibitors of Polymerase Kappa; purified Pol kappa, fluorescent DNA synthesis assay, 10 min; actives 0.53% (n = 400,000); Potency, µM (titrated, usually from 107 µM), inactives show top-dose activity, negative = inhibition, most hits filed as inhibitors; AID 588579, 2011; DNA polymerase kappa (Homo sapiens), Q9UBT6; further: on the % scale 0 is the no-effect control and ±100 the full control effect
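Kinetic fluorescence readout at 0 and 10 min followed reaction start with substrate at 50 nM final. Beforehand, enzyme (10 nM Pol kappa) stood 15 min with compound at room temperature; buffer-only wells were negative controls.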
Pol iota inh: qHTS for Inhibitors of Polymerase Iota; DNA polymerase iota (Homo sapiens), Q9UNA4; Pol iota fluorescent replication assay, 10 min; Potency, µM (highest dose often 115 µM), inactives show top-dose activity, negative = inhibition, hits mostly inhibitors; actives 1% (n = 390,000); AID 588590, 2011
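Pol iota at 10 nM preincubated 15 min with compounds at room temperature; reaction started with fluorescent substrate, 50 nM final. Fluorescence read kinetically at 0 and 10 min; buffer-only wells as negative control.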
Pol eta inh: qHTS for Inhibitors of Polymerase Eta; DNA polymerase eta (Homo sapiens), Q9Y253; recombinant Pol eta, fluorescent DNA replication assay; Potency, µM (top dose mostly 114 µM), without a hit: at the highest dose activity change, negative = inhibition, hits mostly inhibitors; actives 1.2% (n = 390,000); further: on the % scale 0 is the no-effect control and ±100 the full control effect
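Fluorescent replication assay: 50 nM final substrate added after a 15 min room-temperature compound preincubation with 10 nM enzyme. Signal taken at 0 min and again at 10 min.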
Pol beta inh: qHTS Assay for Inhibitors of DNA Polymerase Beta | Pol beta primer extension/strand displacement, fluorescence kinetic | actives 1.3% (n = 340,000) | Potency, µM (top dose mostly 114 µM), inactives show at the top dose activity change, negative = inhibition, actives largely listed as inhibitors | P06746 | AID 485314, 2010; further: on the % scale 0 is the no-effect control and ±100 the full control effect
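Reaction started by 50 nM substrate onto compound-treated Pol beta (10 nM, 15 min preincubation, room temperature); plates read at 0 min and 10 min. Normalized concentration-effect data fitted by four-parameter Hill equation.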
Active calls of the source: *; ? = inconclusive; · = not tested or not shown; [ ] = remark or other dose. The call rests on the fitted dose curve; in most records, active means well fitted curve in the direction sought with a large enough effect; inconclusive means small, poorly fitted or top-dose-only effect, or another doubt; inactive means no such curve, though single readings can be large; an effect the other way counts as inactive or inconclusive. Potency means the concentration at half of the fitted maximal effect. A portion of the library; rates above refer to the full screens.

1. CCN(CC)CCCNC(=O)CSc1nc2nc(C)c(Cc3c(F)cccc3Cl)c(C)n2n1
2. Cc1nc(-n2ncc(C#N)c2N)c2c3c(sc2n1)CCC3
3. COc1ccccc1N1CCN(C[C@@H](O)COc2cccc3ccccc23)CC1
4. Cc1ccc(NCc2nnc(SCC(=O)NCc3ccco3)n2CC2CCCO2)c(C)c1 (stereo unspecified)
5. O=C1Nc2c(c(=O)[nH]c(=O)n2-c2ccc(Cl)cc2)C1(NS(=O)(=O)c1ccccc1)C(F)(F)F (stereo unspecified)
6. CN(C)CCCO/N=C(\c1ccccc1)c1ccncc1
7. S=c1[nH]c(-c2ccccc2)cn1-c1ccccc1
8. O=[N+]([O-])c1ccc(SCc2ccco2)cc1N1CCOCC1
9. NC(=O)c1c(NC(=O)CSc2nc(N)cc(=O)[nH]2)sc2c1CCCC2
10. Cc1cc2c(cc3c(SCc4ccccc4Cl)nnc(C)n32)o1

assay / compound	1	2	3	4	5	6	7	8	9	10
APE1 inh	·	14%	15%	-10%	·	5%	-2%	9%	16%	·
Apoferritin bind	-18%	0%	-4%[29.3 µM]	-14%	-1%	12%	0%	-21%	-10%	-1%
G9a block	7%[59 µM]	6%	-6%[21.5 µM]	4%[12.7 µM]	-28%[59 µM]	?	10µM*	50µM*	·	7.9µM*
BLM inh	16%	-8%	1%	-7%	2%	-12%	-5%	-8%	-8%	-5%
Pol kappa inh	14%	-13%	-11%[19.4 µM]	-3%	-26%	-13%	-3%	4%	-6%	-6%
Pol iota inh	44%[activator]	2%	·	12%	16%	-4%	32%[activator]	-15%	?	8%
Pol eta inh	-12%	-11%	·	5%	-17%	-12%	-24%	-13%	?	-25%
Pol beta inh	7%	8%	·	-22%	3%	7%	28%	-13%	-5%	6%

11. Cc1cc(NC(=O)CN2CCN(C)CC2)no1
12. O=[N+]([O-])c1ccc(Cl)cc1N1CCCCC1
13. COc1cc(C(=O)NC(=S)Nc2ccccc2N2CCCC2)cc(OC)c1OC
14. CCOC(=O)c1ccccc1NC(=O)CSc1nnc(Cc2cccn2C)n1-c1ccc(C)cc1
15. S=C(c1ccc(N2CCCC2)cc1)N1CCCCC1
16. Cc1sc(N(C(=O)CCc2ccccc2)c2ccc(C(=O)O)cc2)nc1-c1ccccc1
17. COc1cccc(C(=O)N2CCN(Cc3ccccc3Br)CC2)c1
18. Cc1ccc(C(C)C)c(OCCCN2CC(C)OC(C)C2)c1 (stereo unspecified)
19. CCN(c1ccccc1)S(=O)(=O)c1ccc(OC)c(NC(=O)CNCC(C)O)c1 (stereo unspecified)
20. Cc1ncc(CO)c(/C=N/NC(=O)c2ccccc2Br)c1O

assay / compound	11	12	13	14	15	16	17	18	19	20
APE1 inh	-7%	2%	-22%	0%	0%	3%	-2%	1%	0%	-2%
Apoferritin bind	1%	-21%	5%	-18%	?	-4%	-10%	7%	-11%	994%[activator]
G9a block	13µM*	?	40µM*	?	?	·	·	?	?	-4%
BLM inh	-2%	-4%	-19%	-7%	-3%	-8%	1%	-2%	-5%	-7%
Pol kappa inh	-2%	-13%	-23%	-17%	-4%	-12%	-10%	1%	-9%	7%
Pol iota inh	16%	-12%	40%[activator]	-18%[58.9 µM]	?	-14%	-6%	1%	15%	30%[activator]
Pol eta inh	-8%	-7%	-7%	-16%	4%	-30%	-12%	-2%	-12%	-16%
Pol beta inh	7%	5%	5%	24%	-21%	?	18%	-9%	11%	5%[57.1 µM]

21. CCOC(=O)N1CCN(S(=O)(=O)c2ccc(C(=O)Nc3nnc(C)o3)cc2)CC1
22. Cc1ccccc1N1CCN(Cc2ccc([N+](=O)[O-])o2)CC1
23. CC1Cc2ccccc2N1CC(=O)NCc1ccccc1Cl (stereo unspecified)
24. CCOC(=O)/C(=N\Nc1ncnc2ccccc12)c1ccc(C)cc1
25. COc1cc(CN2CCC(C(=O)N3CCC(C)CC3)CC2)cc(Br)c1O
26. CN1CCN(c2nc(-c3cccs3)nc3ccccc23)CC1
27. Cc1ccccc1NC(=O)c1cccc2nc3ccccc3nc12
28. Cc1ccc(-c2nc3ncccn3c2Nc2ccc3c(c2)OCO3)o1
29. CC(C)=CCCC(C)CN1CCC(N2CCC(C(=O)NC(C)C)CC2)CC1 (stereo unspecified)
30. COc1cc2[nH]c(C(=O)NN)c(N)c2cc1OC

assay / compound	21	22	23	24	25	26	27	28	29	30
APE1 inh	2%	-17%	-8%	-17%	2%	0%	-3%	6%	-1%	-9%
Apoferritin bind	3%	-11%	0%	-17%	-10%	1%	-13%	-5%	-8%	-13%
G9a block	5%[59 µM]	35µM*	-11%[59 µM]	-5%	10µM*	?	6%[0.501 µM]	10µM*	9%	?
BLM inh	5%	1%	-4%	-11%	-4%	88%[activator]	-5%	-12%	-1%	-22%
Pol kappa inh	-7%	1%	-10%	-22%	-11%	-27%	-7%	-18%	-9%	·
Pol iota inh	109%[activator]	11%	14%	?	25%	-24%	8%	10%	-13%	·
Pol eta inh	4%	-3%	-22%	-8%	7%	-13%	?	-13%	-7%	·
Pol beta inh	31%	?	21%	8%	26%	-17%	3%	41%	1%	5%

Entries 26 through 30, quoted:
26. CN1CCN(c2nc(-c3cccs3)nc3ccccc23)CC1
27. Cc1ccccc1NC(=O)c1cccc2nc3ccccc3nc12
28. Cc1ccc(-c2nc3ncccn3c2Nc2ccc3c(c2)OCO3)o1
29. CC(C)=CCCC(C)CN1CCC(N2CCC(C(=O)NC(C)C)CC2)CC1 (stereo unspecified)
30. COc1cc2[nH]c(C(=O)NN)c(N)c2cc1OC

assay / compound	26	27	28	29	30
APE1 inh	0%	-3%	6%	-1%	-9%
Apoferritin bind	1%	-13%	-5%	-8%	-13%
G9a block	?	6%[0.501 µM]	10µM*	9%	?
BLM inh	88%[activator]	-5%	-12%	-1%	-22%
Pol kappa inh	-27%	-7%	-18%	-9%	·
Pol iota inh	-24%	8%	10%	-13%	·
Pol eta inh	-13%	?	-13%	-7%	·
Pol beta inh	-17%	3%	41%	1%	5%

(further entries)
31. CC1CCN(c2nc(-c3ccc(Br)cc3)nc3ccccc23)CC1
32. O=C(Nc1nn[nH]n1)C12CC3CC(CC(C3)C1)C2
33. CC(C)c1nc(N2CCN(C(=O)c3ccco3)CC2)c2c3c(sc2n1)CCCC3
34. CCOC(=O)c1c(-c2ccc(OC)cc2)csc1/N=C/C1=C(O)CCCC1=O
35. O=C(CSc1nccn1-c1cccc(Cl)c1)Nc1cccc(C(F)(F)F)c1
36. CC(=O)Nc1ccccc1-c1nc2ccccc2n(C(C)C(=O)c2ccc(C)c(C)c2)c1=O (stereo unspecified)
37. O=C(NCCCn1ccnc1)/C(=C/c1cccnc1)NC(=O)c1ccco1
38. Fc1cccc(CNCc2ccc3c(c2)OCO3)c1
39. O=C(Cc1cccs1)Nc1ccc(-c2nnn(CC(=O)N3CCOCC3)n2)cc1
40. CCOc1ccc(C(=O)c2ccc([N+](=O)[O-])cc2Cl)cc1

assay / compound	31	32	33	34	35	36	37	38	39	40
APE1 inh	·	1%	-9%	1%	·	·	-3%	22%	?	7%
Apoferritin bind	2%	?	-2%	?	-4%	17%	-2%	-14%	-15%	-13%
G9a block	10%[59 µM]	?	-22%[59 µM]	?	11µM*	?	-25%	-69%	50µM*	·
BLM inh	-2%	-13%	-18%	-3%	-7%	2%	0%	-6%	-21%	-8%
Pol kappa inh	4%[60.1 µM]	-6%	-11%	0%	0%[60.1 µM]	-5%	-4%	-18%	-1%	-11%
Pol iota inh	-16%	-11%	3%	-2%	1%	-19%	19%	-8%	1%	75%[activator]
Pol eta inh	-13%	-13%	-16%	-21%	-26%	·	-8%	7%	-1%	8%
Pol beta inh	8%	-9%	1%	20%	-19%	-23%	13%	-1%	18µM*	36%[activator]

41. CCOc1ccc(C2=NNC(c3cccs3)=Nc3ccc(OCC)cc32)cc1
42. O=C(c1ccc(F)cc1)n1cc(C(=S)N2CCOCC2)c2ccccc21
43. COc1ccc(-n2ncc3c(NC(C)(C)CO)ncnc32)cc1
44. COC(=O)COc1ccc2oc(-c3ccc(OC)cc3)cc(=O)c2c1
45. CCN1CCN(CC(=O)Nc2nc3ccccc3s2)CC1
46. O=C(Nc1n[nH]c(C(F)(F)F)n1)C1CC1
47. c1ccc(CN2CCN(c3ncccn3)CC2)nc1
48. CCN(CC)S(=O)(=O)c1ccc(C(=O)Nc2nnc(COC)o2)cc1
49. C=CCOc1ccc(C(=O)Nc2ncn[nH]2)cc1
50. CC(C)Oc1ccc(OCCCN2CCCCCC2)cc1
51. Cc1ccc(Nc2ncnc(N)n2)cc1
52. COc1ccccc1-n1c(C)c(C(=O)O)c2cc(OC)c3ccccc3c21
53. O=C(CCSc1ccc(Cl)cc1)N1CCN(c2ccc(O)cc2)CC1

assay / compound	41	42	43	44	45	46	47	48	49	50	51	52	53
APE1 inh	-6%	-11%	·	·	-6%	-9%	2%	-1%	43%	1%	4%	-14%	-6%
Apoferritin bind	-17%	-9%	-3%	7%	-7%	-5%	-6%	-7%	2%	-19%	-2%	-1%	-16%
G9a block	?	·	-15%[59 µM]	-26%[59 µM]	·	50µM*	5.6µM*	0%	-31%	-38%[12.7 µM]	71µM*	?	32µM*
BLM inh	-17%	-4%	-2%	-3%	1%	-1%	1%	-2%	-2%	-8%	-6%	-4%	-6%
Pol kappa inh	·	-5%	-5%[60.1 µM]	-10%	-9%	0%	·	-4%	-19%	-9%	0%	-4%	-2%
Pol iota inh	·	78%[activator]	20%	-13%	46%[activator]	60%[activator]	·	6%	-18%	?	13%	-1%	34%[activator]
Pol eta inh	·	3%	-1%	·	-20%	-18%	·	-10%	-7%	-4%	-10%	-15%	-7%
Pol beta inh	-1%	1%	2%	1%	44%	?	5%	18%	1%	8%	-12%	21%	-7%

High-throughput results: PubChem, National Center for Advancing Translational Sciences (NCATS)
